High-throughput results as filed in PubChem BioAssay.
Cruzain inh Det: cruzain (T. cruzi) inhibition with detergent; Potency, µM, for inactives: max response, negative = inhibition, actives largely listed as inhibitors; P25779; hit rate 0.43% among 200,000; purified cruzain, Z-FR-AMC fluorescence, 0.01% Triton; AID 1478; active = well fitted curve in the direction sought with a large enough effect; inconclusive = small, poorly fitted or top-dose-only effect, or another doubt; inactive = no such curve, though single readings can be large; an effect the other way counts as inactive or inconclusive;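 note: plate controls were neutral wells for no effect and buffer without enzyme for full effect; nearly all actives have a fitted effect of over 40% in size; top concentration of the series not given in the record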
Target sequence (P25779 123-467 limits assumed): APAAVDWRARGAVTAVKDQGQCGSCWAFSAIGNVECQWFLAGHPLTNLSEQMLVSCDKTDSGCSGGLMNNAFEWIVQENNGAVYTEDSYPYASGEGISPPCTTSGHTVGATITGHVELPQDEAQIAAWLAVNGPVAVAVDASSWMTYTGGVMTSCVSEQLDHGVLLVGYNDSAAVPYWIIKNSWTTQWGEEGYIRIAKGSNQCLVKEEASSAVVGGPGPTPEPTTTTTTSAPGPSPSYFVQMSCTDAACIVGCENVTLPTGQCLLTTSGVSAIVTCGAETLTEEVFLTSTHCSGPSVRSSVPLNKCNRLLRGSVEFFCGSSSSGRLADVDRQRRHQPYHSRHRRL
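Detergent-containing run (0.01% Triton X-100) in acetate buffer pH 5.5 with 5 mM DTT: enzyme at 1.5 nM final, 15 min compound preincubation at room temperature, then 2 uM Z-FR-AMC substrate. Activity taken as 60 s fluorescence increase at 360/450 nm.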
MARV entry inh: blocks Marburg virus binding to or entry into cells | Potency, µM (series often up to 37.8 µM), for the others: at the top dose activity change, negative = inhibition, actives largely listed as inhibitors | hit rate 1.8% among 300,000 | Marburg virus pseudotyped entry inhibition, cell reporter; control for the full effect not named in the record; about a third of the inactives were read at about 46 µM | AID 540276; active = well fitted inhibition curve with a large enough effect; inconclusive = small, poorly fitted or top-dose-only effect, or effect the other way; inactive = flat fitted curve, though single readings scatter; tested in HEK293 cells; about a fifth of its hits are not listed in these tables; note: % is set by controls: 0 for no effect and ±100 for the full control effect; luciferase read-out
NS1 function inh: blocks influenza NS1 protein function | S. cerevisiae slowed by influenza A NS1, growth recovery by OD600 | Potency, µM (highest dose often 46.1 µM), for the others: top-dose activity, positive = more growth | hit rate 0.4% among 270,000 | AID 2326; note: actives are rising curves; nearly all actives have a fitted effect of over 50% in size
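In this qHTS, NS1 from influenza A is expressed in budding yeast, where it slows growth. Cells are switched from glucose to 2% galactose medium (pH 6.0, -URA), treated with compound, and growth recovery is read at OD600.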
SARS PLP yeast: SARS-CoV PLP inhibition in yeast. Potency, µM (top dose mostly 32.9 µM), for the others: at the highest dose activity, positive = growth rescue. hit rate 0.19% among 330,000. S. cerevisiae expressing SARS-CoV PLpro, growth rescue; control for the full effect not named in the record; note: 0% is about no effect; nearly all actives have a fitted effect of over 55% in size; growth read by luminescence after 48 h
Cruzain noTriton: blocks cruzain activity in detergent-free assay; purified cruzain, Z-FR-AMC fluorescence, no detergent; P25779; Potency, µM, inactives show max response, negative = inhibition, most hits filed as inhibitors; hit rate 2.3% among 200,000; active = well fitted curve in the direction sought with a large enough effect; inconclusive = small, poorly fitted or top-dose-only effect, or another doubt; inactive = no such curve, though single readings can be large; an effect the other way counts as inactive or inconclusive;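 note: plate controls were enzyme without inhibitor for no effect and buffer without enzyme for full effect; nearly all actives have a fitted effect of over 40% in size; top concentration of the series not given in the record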
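Purified cruzain at 1.5 nM, pre-incubated 15 min with compound at room temperature in 100 mM sodium acetate pH 5.5, 5 mM DTT, 0.00005% Triton X-100. Reaction started with 2 uM Z-FR-AMC; AMC fluorescence increase over 60 s gives rate.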
RE007 growth inh: less growth of the S. pombe RE007 Vpr strain. AID 651644. hit rate 0.21% among 360,000. Potency, µM (highest dose often 92.2 µM), inactives show at the highest dose activity change, negative = less growth. S. pombe RE007 Vpr strain, BacTiter-Glo ATP luminescence, 24 h; control for the full effect not named in the record; active = well fitted falling curve with a large enough effect; inconclusive = small, poorly fitted or top-dose-only effect; inactive = no such curve, though single readings can be large or run the other way;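 note: % is set by controls: 0 for no effect and ±100 for the full control effect; nearly all actives have a fitted effect of over 50% in size; the assay follows cell death caused by Vpr and the record does not say whether a fall means rescue or toxicity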
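Fission yeast RE007 carrying one integrated HIV-1 vpr copy, seeded at OD 0.01 in PMG+AL medium with 23 nL pinned compound. Grown 24 h at 30 degrees; viability read by BacTiter-Glo luminescence after 5 min.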
StopGo reporter: lowers the luciferase signal of an FMDV 2A StopGo reporter; human cells with a luciferase reporter of 2A StopGo recoding; control for the full effect not named in the record; Potency, µM (series often up to 57.9 µM), inactives show top-dose signal change, negative = less light; hit rate 1.2% among 410,000; active = well fitted falling curve with a large enough effect; inconclusive = small, poorly fitted or top-dose-only effect; inactive = no such curve, though single readings can be large or run the other way; tested in HEK293T cells; note: % is set by controls: 0 for no effect and ±100 for the full control effect; nearly all actives have a fitted effect of over 45% in size; luciferase light after 4 h
Lassa entry inh: Lassa virus entry inhibition; Potency, µM (top dose mostly 37.9 µM), for the others: at the highest dose activity change, negative = inhibition, hits mostly inhibitors; Lassa virus pseudotype entry inhibition, cell reporter; control for the full effect not named in the record; AID 540256; hit rate 1.2% among 300,000; active means well fitted inhibition curve with a large enough effect; inconclusive means small, poorly fitted or top-dose-only effect, or effect the other way; inactive means flat fitted curve, though single readings scatter; tested in HEK293 cells; note: % is set by controls: 0 for no effect and ±100 for the full control effect; nearly all actives have a fitted effect of over 50% in size; luciferase read-out
Starred values were filed as active, the others as inactive; ? = inconclusive; . = not tested or not shown; [ ] = another dose, or the depositor's remark. Unless noted, calls come from the whole dose curve; as a rule, active means well fitted rising curve with a large enough effect; inconclusive means small, poorly fitted or top-dose-only effect; inactive means no such curve, though single readings can be large or run the other way. Potency is the fitted concentration of half-maximal effect. Hits appear at their usual frequency. About 4.7% of those tested had a hit in this group.

smiles	RE007 growth inh	Cruzain noTriton	Lassa entry inh	MARV entry inh	Cruzain inh Det	SARS PLP yeast	StopGo reporter	NS1 function inh
COc1ccc(C(=O)CCN2CCN(c3ccc(OC)cc3)CC2)cc1	?	.	-19.7%	-2.7%	.	-3.3%	-5.8%	7.8%
Oc1ccc(Cl)cc1N=Cc1sc2ccccc2c1Cl	-26.1%	.	-14.9%[46.1 µM]	?	.	-11.4%	14.7%	.
NC(=O)C1CCN(C(=O)CSc2nc3c(c(-c4ccccc4)n2)CCCC3)CC1	-19.9%	26.1%	1.0%	4.7%	-8.9%	-0.7%	-5.0%	-11.7%
O=C(CSc1nnc2ccc(-c3ccncc3)nn12)c1cccs1	5.9%	.	-4.0%	0.3%[46.1 µM]	.	1.5%	-8.1%	.
CCOc1ccc(N(CC(=O)NC(C)(C)C)C(=O)CCC(=O)Nc2nccs2)cc1	8.2%	.	10.7%	-4.2%	.	4.5%	6.0%	6.6%
NC(=S)Nc1cccc2[nH]ncc12	-10.2%	.	1.2%[46.1 µM]	3.4%[46.1 µM]	.	7.1%	6.0%	.
Cc1nnc(NC(=O)c2cccc(S(=O)(=O)N3CCCC3)c2)s1	-10.4%	.	-11.5%	24.3%	.	-1.6%	6.1%	2.7%
CCC(=O)Nc1ccccc1C(=O)C(=O)Nc1ccccc1	4.5%	-10.1%	?	?	-1.4%	23.0%	34.4%[activator]	-1.9%
CC(Nc1cc(N2CCN(S(C)(=O)=O)CC2)ccc1[N+](=O)[O-])c1ccccc1 (stereo not given)	1.2%	2.6%	?	-4.3%	-8.9%	8.6%	-8.2%	-1.9%
COc1cccc(NC(=O)c2oc3ccccc3c2NC(=O)c2cc3ccccc3o2)c1	.	?	7.0%[46.1 µM]	?	-0.5%	.	-8.1%	.

Further entries.
smiles	RE007 growth inh	Cruzain noTriton	Lassa entry inh	MARV entry inh	Cruzain inh Det	SARS PLP yeast	StopGo reporter	NS1 function inh
Cc1cc(SCC(=O)Nc2ccc(O)cc2)n2ncc(-c3ccccc3)c2n1	14.3%	.	.	.	.	2.6%	-24.3%	1.8%
Cc1ccc(-n2ncc(C(=O)Nc3ccc4c(c3)OCO4)c2C2CCN(C(=O)OC(C)(C)C)CC2)cc1	.	-9.2%	-22.8%[46.1 µM]	.	-10.0%	.	27.8%	.
C=CCN(Cc1nc(-c2ccc(OC)c(OC)c2)oc1C)C1CCS(=O)(=O)C1 (stereo not given)	2.0%	.	4.0%	1.0%[46.1 µM]	.	-1.6%	15.3%	1.6%
COc1ccc(OC)c(N(CC(=O)N2CCCCC2)S(=O)(=O)c2ccc(OC)c(OC)c2)c1	-4.5%	?	-9.7%	-3.7%[46.1 µM]	-1.1%	7.1%	61.7%[activator]	-0.7%
CC(=O)Nc1ccc(OCC(=O)NCc2ccccc2)cc1	-4.3%	.	-0.5%[46.1 µM]	15.2%[46.1 µM]	.	0.2%	2.4%	12.8%
[O-]/C(=C(\C(=S)Nc1ccc(SC(F)F)cc1)[n+]1ccccc1)c1cc(Cl)ccc1Cl	3.8%	.	?	?	.	-4.2%	-10.2%	.
O=C(COc1cccc(NC(=O)c2ccccc2)c1)c1ccc(F)cc1	9.6%	-1.8%	-13.4%	?	-3.8%	12.9%	?	0.0%
Cc1ccc(NC(=S)NCCc2ccc(S(N)(=O)=O)cc2)c(C)c1	6.4%	.	-7.2%	14.5%	.	.	-1.6%	.
N#CC1=C(N)OC2=C(C(=O)CC(c3ccccc3)C2)C1c1ccoc1 (stereo not given)	6.9%	-5.9%	-17.0%	11.0%	-5.3%	?	-3.8%	16.7%
CN(Cc1cccs1)S(=O)(=O)c1cccs1	-4.5%	-12.8%	7.1%	0.9%	0.5%	-8.9%	5.4%	-6.4%

Continued:
smiles	RE007 growth inh	Cruzain noTriton	Lassa entry inh	MARV entry inh	Cruzain inh Det	SARS PLP yeast	StopGo reporter	NS1 function inh
CC(=O)n1cc([C@H]2C=C(C(=O)N3CCOCC3)O[C@@H](OCc3ccc(CO)cc3)C2)c2ccccc21	6.6%	.	.	.	.	0.9%	-19.4%	-4.5%
Cc1ccc(CN2C(=O)CCC2(C)C(=O)NCc2cccnc2)cc1 (stereo not given)	14.4%	-0.9%	2.2%	-12.8%	9.2%	17.0%	-5.6%	-6.1%
COc1ccc(-c2cc(-c3ccccc3)c(C#N)c(=S)[nH]2)cc1	13.9%	.	.	.	.	6.4%	-13.2%	3.5%
Cc1ccc(-c2csc(N3CCN(S(=O)(=O)c4ccc5c(c4)NC(=O)CO5)CC3)n2)cc1	-3.0%	.	?	15.0%[46.1 µM]	.	-0.6%	-13.4%	10.5%
Cc1cc(C)n(C(=O)CCCCCCCC(=O)n2nc(C)cc2C)n1	6.2%	28.7%	7.9%	11.7%	-6.2%	-16.0%	.	6.5%
CC(=O)NCCc1nc2cc(NC(=O)Nc3ccccc3)ccc2n1C	5.1%	.	.	.	.	-0.2%	52.8%[activator]	0.9%
CCCc1cc(=O)[nH]c(SCC(=O)N2N=C(c3ccc(Cl)cc3)CC2c2ccco2)n1 (stereo not given)	-6.1%	14.9%	-22.0%	?	-21.4%	-1.5%	-19.3%	26.8%
CC(=O)C(Sc1nnnn1-c1ccc(O)cc1)c1ccccc1 (stereo not given)	-1.9%	.	.	.	.	0.2%	-15.3%	-1.2%
O=C(NCc1cccc(F)c1)C1CCN(c2nc3ccccc3nc2C(F)(F)F)CC1	.	-12.2%	4.0%[46.1 µM]	.	3.3%	.	-20.9%	.
COc1ccc(C)cc1NC(=O)CSc1nnc(-c2ccco2)n1Cc1ccco1	2.2%	2.6%	9.7%	-0.7%	-3.9%	-0.5%	-7.8%	-34.7%

Remaining list, next part:
smiles	RE007 growth inh	Cruzain noTriton	Lassa entry inh	MARV entry inh	Cruzain inh Det	SARS PLP yeast	StopGo reporter	NS1 function inh
CC(C)(C)C(=O)C1=C(O)C(=O)N(Cc2ccccc2)C1c1ccccc1Cl (stereo not given)	12.4%	.	.	.	.	2.8%	68.7%[activator]	-16.7%
COC(=O)c1ccccc1NC(=O)c1cc(-c2ccco2)on1	-8.4%	.	22.5%[46.1 µM]	-1.2%[46.1 µM]	.	1.3%	6.2%	-11.0%
O=C(Nc1ccc(C(=O)NCCCN2CCN(c3ccc(F)cc3)CC2)cc1)C1=CSCCO1	-3.5%	.	.	.	.	1.0%	-10.9%	2.4%
Cn1cc(CN2CCCC(CO)C2)c(-c2ccc(Oc3ccccc3)cc2)n1 (stereo not given)	-2.6%	.	.	.	.	-1.1%	-8.7%	3.6%
Cn1c(SCC(=O)Nc2nccs2)nnc1-c1ccccn1	7.7%	.	11.0%[46.1 µM]	2.0%[46.1 µM]	.	-0.9%	-18.4%	3.2%
Cc1cc(C(=O)CSc2n[nH]c(N)n2)c(C)n1-c1ccc2c(c1)OCO2	5.6%	-25.9%	5.9%	?	-3.4%	3.7%	-26.3%	27.0%
O=C1NC2=C(C(=O)CCC2)C(c2ccc([N+](=O)[O-])cc2)N1 (stereo not given)	2.7%	.	-0.7%[46.1 µM]	9.8%[46.1 µM]	.	-2.1%	16.0%	-5.6%
CCC(C(=O)N1CCN(C(=O)c2ccco2)CC1)c1ccccc1 (stereo not given)	5.0%	5.3%	-7.5%	3.4%	-1.0%	-7.3%	0.1%	3.5%
CC(NC(=O)C1CCN(S(=O)(=O)c2cc([N+](=O)[O-])ccc2Cl)CC1)c1ccccc1 (stereo not given)	3.5%	-7.5%	-20.0%[46.1 µM]	?	-4.1%	-9.0%	-18.9%	9.0%
COC(=O)C1=C(C)NC2=C(C(=O)CC(C)(C)C2)C1c1cn(Cc2ccc(Br)cc2)nc1-c1ccccc1 (stereo not given)	-0.1%	-10.2%	-21.0%	?	-9.5%	5.1%	21.9%	?

The list continues.
smiles	RE007 growth inh	Cruzain noTriton	Lassa entry inh	MARV entry inh	Cruzain inh Det	SARS PLP yeast	StopGo reporter	NS1 function inh
O=C1c2ccncc2C(=O)N1c1cccc(Cl)c1	11.8%	.	13.1%	22.8%[46.1 µM]	.	1.3%	-4.7%	.
C=C(C)c1cccc(C(C)(C)NC(=O)NCC2CCCO2)c1 (stereo not given)	16.1%	-3.4%	5.5%	-2.2%[46.1 µM]	1.6%	-2.2%	-10.3%	5.4%
CCN(CC)C(=O)Cn1cc(/C=C2\C(=O)NC(=O)N(c3ccccc3F)C2=O)c2ccccc21	-11.3%	.	?	?	.	2.0%	25.1µM*	-3.4%
Cc1ccc(NC(=O)CSCC#N)cc1	10.9%	7.7%	2.0%	1.3%	3.9%	1.5%	27.0%	10.2%
Cc1ccc(C(=O)c2c3ccc([N+](=O)[O-])cc3[n+]([O-])n2CCC(N)=O)cc1	-5.4%	.	.	.	.	0.6%	12.7%	28.1%
COc1ccccc1C(=O)C1CCCN(Cc2cnc(C)s2)C1 (stereo not given)	-15.1%	.	.	.	.	0.4%	0.0%	-0.5%
O=C(Cn1ncc2ccsc2c1=O)N1CCN(c2ccccc2)CC1	.	-7.4%	-14.5%[46.1 µM]	14.5%[46.1 µM]	-0.9%	.	-20.7%	.
CCC(C)[C@H](NC(=O)N1CCCCC1)C(=O)OC (stereo not given in full)	-8.9%	.	8.4%	-1.6%	.	-3.8%	-6.9%	2.1%
C=CCn1c(SCC(=O)Nc2nccs2)nnc1-c1ccco1	0.9%	-4.8%	-1.4%	-13.8%	1.1%	5.1%	15.2%	-4.1%
NC(=O)C1CCN(c2cc(N3CCOCC3)ccc2[N+](=O)[O-])CC1	0.0%	.	.	.	.	-1.3%	-6.1%	2.6%
CNCC(O)c1cccc(OC(=O)c2ccccc2C)c1 (stereo not given)	255.6%	0.3%	-19.8%	?	7.2%	-8.7%	?	-2.7%
Cc1ccc(-n2nc(CO)c(C(=O)NCc3cccnc3)n2)cc1C	.	0.4%	?	?	-2.9%	.	-8.8%	.
COc1ccc(C(O)c2ncc(C(F)(F)F)cc2Cl)cc1 (stereo not given)	7.7%	.	13.0%[46.1 µM]	2.2%[46.1 µM]	.	-2.3%	-10.0%	0.3%
